VDR inh – inhibitors of human vitamin D receptor; actives 0.93% (n = 400,000); VDR-SRC2-3 peptide fluorescence polarization, 2 h; Potency, µM, for the others: max response, negative = inhibition, actives largely listed as inhibitors; P11473; active = well fitted inhibition curve with a large enough effect; inconclusive = small, poorly fitted or top-dose-only effect, or another doubt; inactive = no such curve, though single readings can be large or run the other way; also: series mostly up to about 120 µM
Target sequence (P11473 whole entry, looked up): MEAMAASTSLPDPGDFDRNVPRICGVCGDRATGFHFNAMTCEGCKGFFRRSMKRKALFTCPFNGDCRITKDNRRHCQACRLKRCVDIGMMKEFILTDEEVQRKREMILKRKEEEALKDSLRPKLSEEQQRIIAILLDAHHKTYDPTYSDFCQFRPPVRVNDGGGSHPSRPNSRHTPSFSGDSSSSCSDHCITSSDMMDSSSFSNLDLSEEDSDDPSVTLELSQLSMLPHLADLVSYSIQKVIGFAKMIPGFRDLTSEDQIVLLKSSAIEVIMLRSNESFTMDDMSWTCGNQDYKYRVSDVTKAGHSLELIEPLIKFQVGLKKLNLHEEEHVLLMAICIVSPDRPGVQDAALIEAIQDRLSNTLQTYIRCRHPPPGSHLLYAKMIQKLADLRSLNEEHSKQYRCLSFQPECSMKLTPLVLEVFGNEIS
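Compounds are added to VDR with labelled SRC2-3 coactivator peptide and held 2 h at room temperature. Inhibition of the VDR–peptide interaction is then read as a change in fluorescence polarization.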
Active calls of the source: *; ? = inconclusive. % is scaled to controls: 0 for no effect and ±100 for the full control effect; potency is read from the fitted curve at half-maximal effect.

SMILES	VDR inh
CCc1nnc(NC(=O)CSc2nc(-c3ccc(F)cc3)cc(-c3ccccc3)c2C#N)s1	6.7%
Cc1cc(C)c(CSc2ncc(-c3ccc([N+](=O)[O-])cc3)[nH]2)c(C)c1	-2.0%
Cc1cnc(CNc2ccnc(-c3ccc(N(C)C)cc3)n2)cn1	-5.7%
COc1ccc2cc(CN(CCCN3CCOCC3)Cc3nnnn3C3CCCCC3)c(=O)[nH]c2c1	-7.7%
CCCCCOc1ccc(CSc2n[nH]c(C)n2)cc1	?
O=C(NC(=S)N(Cc1ccccc1)c1ccccn1)C1CC1	-18.9%
CC(=O)Nc1ccc(NC(=O)COC(=O)c2ccccc2C(=O)c2ccccc2)cc1	0.7%
CCOC(=O)Nc1cc(Br)c2c(c1)OCCO2	23.1%
NC(=O)C1CCN(c2ncnc3c2cnn3-c2ccccc2)CC1	13.3%
Cc1cccc(NC(=O)C2CCCN2C(=O)OCc2ccccc2)c1 (stereo unspecified)	5.6%
O=S(=O)(NCC(c1cccnc1)N1CCN(c2ccccc2F)CC1)c1cccs1 (stereo unspecified)	5.3%
CCN(CC(=O)Nc1ccc2c(c1)OCCO2)C(=O)CSCC(=O)Nc1ccc(C)cc1	-11.8%

Among those listed so far, these contain two or more sulfur atoms:
SMILES	VDR inh
CCc1nnc(NC(=O)CSc2nc(-c3ccc(F)cc3)cc(-c3ccccc3)c2C#N)s1	6.7%
O=S(=O)(NCC(c1cccnc1)N1CCN(c2ccccc2F)CC1)c1cccs1 (stereo unspecified)	5.3%

Additional structures follow.
SMILES	VDR inh
COc1ccc(-n2ncc(C(=O)N3CCN(c4ccccn4)CC3)c2C2CCN(C(=O)OC(C)(C)C)CC2)cc1	15.8%
O=C(O)/C=C/c1cn(-c2ccccc2)nc1-c1ccccc1	2.0%
CC(O)CN(CCN(CC(C)O)CC(C)O)CC(C)O (stereo unspecified)	-0.2%
CC(=O)c1ccc(N2C(=O)N(CC(=O)c3ccc(C)cc3)c3ccccc3S2(=O)=O)cc1	-3.7%
COc1ccc(Cl)cc1C(=O)Nc1c2c(nn1-c1ccc(Cl)cc1)CS(=O)(=O)C2	23.8%
COc1ccc(-c2nc3ccccc3n3c(-c4cccc(C)c4)c4c(=O)n(C)c(=O)n(C)c4c23)cc1OC	0.0%
O=C(CSc1nnnn1C1CCCC1)N1CCN(C(=O)c2ccco2)CC1	-9.8%
O=C(NCc1ccc2c(c1)OCO2)C1CCN(Cc2cnn(-c3ccccc3)c2-n2cccc2)CC1	-4.7%
O=c1c2[nH]c3ccc(F)cc3c2nc2n1CCCS2	4.0%
Cc1ccc(-c2nnc(N(C)C(=O)c3cccnc3)s2)cc1	-20.7%
Cc1ccccc1CN1[C@@H](Cc2ccccc2)COCCS1(=O)=O	11.5%
O=C(CCn1c(=S)[nH]c2ccccc2c1=O)N1CCCCC1	-19.6%
Cc1cc(NC(=O)c2cccnc2)cc(-c2nc3cc(Cl)ccc3o2)c1O	8.2%
COc1ccc(C(O)P(=O)(OCc2ccccc2)c2ccc(N(C)C)cc2)cc1 (stereo unspecified)	-17.0%
Cc1[nH]c2ccccc2c1C(C[N+](=O)[O-])c1cccc(O)c1 (stereo unspecified)	7.6%
CC(C)(C)NC(=O)C[C@H]1C[C@H](C(=O)N2CCOCC2)[C@@]2(C)c3[nH]c4ccc(Cl)cc4c3CCN2C1=O	-3.7%
O=C(CC(c1ccccc1)c1ccccc1)Nc1ccncc1	1.9%
O=S(=O)(c1ccc(Cl)cc1)N1CCNCC1	-8.9%
COc1ccc(-n2c(SCC#N)nnc2-c2ccc(NS(=O)(=O)c3ccc(C)cc3)cc2)cc1	-0.9%
CN1CCN(C(=O)C23CC4CC(C)(CC(C)(C4)C2)C3)CC1	-7.2%
COc1cc(/C=N\NC(=O)c2ccc(C)nc2)ccc1OC(=O)c1ccc2c(c1)OCO2	4.9%
CC(=O)Nc1c(O)nc(C)[nH]c1=O	19.1%
CC(C)OCCCNC(=O)Cc1ccc(F)cc1	3.5%
O=C(/C=C/c1cccc(Cl)c1)c1ccc([N+](=O)[O-])o1	?
Cc1ccccc1CCNC(=O)c1ccc2c(c1)nc1n2CCC(C)C1 (stereo unspecified)	6.6%
C=CCn1c(=O)/c(=C/c2cc(OC)c(OC)c(OC)c2)s/c1=C(/C#N)c1nc2ccccc2n1C	7.6%
C/C(=N\NC(=O)c1cc(-c2cccc([N+](=O)[O-])c2)n[nH]1)c1ccccc1O	-7.8%
COc1cccc2c1OC(=O)CC2c1ccc(C)cc1 (stereo unspecified)	7.1%
CCOC(=O)c1cc(-c2ccccc2)n(CCC(=O)NC2CCCCC2)c1C	9.8%
COCCSc1nnc(NC(=O)c2ccco2)s1	-12.9%
COCCCNC(=S)N1CCN(c2ccccc2)CC1	-2.4%
COc1ccccc1C(=O)Nc1cc2c(cc1N1CCCCC1)n(C)c(=O)n2C	-11.5%
COc1ccc2oc(=O)c(C(=O)N3CCN(c4ccccc4)CC3)cc2c1	-16.8%
COCCNC(=O)C(c1ccc(F)cc1)N(Cc1ccccc1)C(=O)CCC(=O)Nc1nccs1 (stereo unspecified)	-2.0%
Cc1ccccc1-c1nc(NCc2cccnc2)c2ccccc2n1	?
Cc1ccc(/C=C2\S/C(=N/S(=O)(=O)c3cccs3)NC2=O)cc1	-24.8%
CC(C)CCNC(=O)CN(C(=O)Cn1nnc(-c2ccccc2F)n1)c1cccc2c1CCCC2	3.7%
NC(=O)c1sc2nc(-c3cccnc3)ccc2c1N	4.7%
Cc1ccc(NC(=O)CN2C(=O)CSC2=O)cc1	6.0%
Cc1cccc(NC(=O)c2ccco2)c1C(=O)O	12.4%
COc1ccc(-c2nnc3n(CCc4ccccc4)c(=O)c4ccccc4n23)cc1OC	-4.7%
CC(C)(C)C(=O)NC(=S)NNC(=O)c1ccc(-c2ccccc2)cc1	-12.9%
CC(=O)Nc1ccc(S(=O)(=O)NNC(=O)c2cccc([N+](=O)[O-])c2)cc1	-4.7%
COc1ccccc1C(=O)COC(=O)C(CCSC)NC(=O)COc1ccccc1 (stereo unspecified)	-23.4%
Cc1nn(C)c2c1c(C(F)(F)F)cc(=O)n2C(C)C(=O)Nc1ccccc1F (stereo unspecified)	-0.2%
CCCCCCC(=O)Nc1nc(C)c(-c2csc(Nc3cc(OC)ccc3OC)n2)s1	-2.9%
Cc1oc(-c2cccs2)nc1CN1CCN(CCC(C)C)C(CCO)C1 (stereo unspecified)	-4.0%
COC(=O)c1sccc1NC(=O)c1ccc(C(C)C)cc1	-1.7%

Part of the list above, with each value named:
> Cc1cc(C)c(CSc2ncc(-c3ccc([N+](=O)[O-])cc3)[nH]2)c(C)c1
  VDR inh: -2.0%
> Cc1ccc(NC(=O)CN2C(=O)CSC2=O)cc1
  VDR inh: 6.0%
> Cc1[nH]c2ccccc2c1C(C[N+](=O)[O-])c1cccc(O)c1 (stereo unspecified)
  VDR inh: 7.6%
> O=C(CCn1c(=S)[nH]c2ccccc2c1=O)N1CCCCC1
  VDR inh: -19.6%

Continuation:
SMILES	VDR inh
CCOC(=O)C1=C(COC(=O)[C@H](C)NS(=O)(=O)c2ccccc2F)NC(=O)NC1C (stereo partly specified)	-18.0%
COc1cc(CN2CCc3c([nH]c4ccccc34)C2)cc(OC)c1	50.1µM*
Cc1cc2ccccc2n1CCNC(=O)Cc1cccc2ccccc12	-13.4%
CCCCn1c(=O)[nH]c(=O)c2c1nc(-c1ccc(OCCC)c(OCC)c1)n2C	-11.5%
N#CCCn1c(SCC(=O)N2CCN(S(=O)(=O)c3ccccc3)CC2)nc2ccccc21	8.7%
O=C(NC(=S)N(Cc1ccccc1)c1ccccn1)C1CCCCC1	?
Cc1cccc[n+]1C1C(c2ccc([N+](=O)[O-])cc2)C(C#N)=C(C(=C=[N-])C#N)NC1(O)C1CC1 (stereo unspecified)	-16.2%
CC1(C)Cc2nc3sc(C(=O)NCCCO)c(N)c3cc2CO1	-9.8%
Cc1nc(-c2ccccc2)sc1CCNC(=O)C(=O)Nc1ccc(F)c(Cl)c1	2.6%
Cc1ccc(C)c(NC(=O)CCn2nc(C)c3c(C)n(-c4ccccc4)nc3c2=O)c1	3.9%
O=C(O)c1cccc(COCC(F)(F)C(F)F)c1	-5.7%
CC1CCCN(CCCNC(=O)c2ccc(NC(=O)C3=CSCCO3)cc2)C1 (stereo unspecified)	10.0%
CCOC(=O)[C@H]1[C@H]2COc3ccc(Br)cc3[C@@H]2N2C(=O)CN(Cc3ccc(F)cc3)C(=O)[C@@]12C	-10.4%
COCC1CCCCN1Cc1cn[nH]c1-c1ccc2cc(OC)ccc2c1 (stereo unspecified)	4.9%
CN(C)c1ccc(NC(=O)N2CCOCC2)cc1	14.1µM*
C=CC(=O)Oc1ccc(N2Cc3ccccc3C2=O)cc1	?
COc1ccc(N2CCN(C(=O)c3ccc(Cn4c(=S)[nH]c5ccc(N6CCOCC6)cc5c4=O)cc3)CC2)cc1	10.6%
CCN1CCc2c(sc(NC(=S)NC(=O)c3cccc(F)c3)c2C(N)=O)C1	?
Cc1cc(SCC(=O)Nc2ncc(Cl)cc2Cl)nc2ccccc12	?
Cc1ccc(NC(=O)CN(C)C(=O)Cc2coc3cc(C)c(C)cc23)cc1	9.3%
Cc1cccc(NC(=O)N2CCCc3ccccc32)c1C	15.4%
Cn1c(SCC2CCCO2)nnc1-c1ccc([N+](=O)[O-])cc1 (stereo unspecified)	-0.6%
COc1ccc(NC(=O)c2cc(S(=O)(=O)Nc3ccc(OC)cc3)cs2)cc1	-6.2%
COC(=O)c1c(NC(=O)/C(C#N)=C/c2ccccc2)sc2c1C(C(=O)OC)CC2 (stereo unspecified)	-27.5%
CCCOC(=O)Nc1ccc(S(=O)(=O)Nn2cnnc2)cc1	12.4%
CN(C)/C(=C\C(=O)c1ccccc1)C(=O)c1ccccc1	-10.4%
CC1Cc2cc(/C(O)=C3/C(=O)C(=O)N(CCN4CCOCC4)C3c3ccc(C(C)C)cc3)ccc2O1 (stereo unspecified)	-4.7%
COc1ccccc1C(=O)COC(=O)CNS(=O)(=O)c1ccc(C)c(C)c1	-1.2%
COc1ccc(-c2c(C)n([O-])c3c([n+]2=O)CCCC3)c(OC)c1	0.5%
COc1ccc(C(=O)n2nc(-c3ccco3)nc2NCc2cccs2)cc1	18.8%
Cn1nnnc1SCCCNCc1cccc(OCc2ccccc2Cl)c1	13.4%
C=CCn1c(SCC(=O)NCCC2=CCCCC2)nc2ccc(Cl)cc2c1=O	?
Cc1ccc(/C=C/c2onc(C)c2S(=O)(=O)N2CCC(C(=O)NCc3ccc(OC(C)C)cc3)CC2)cc1	10.9%
CCOc1ccc(C2C(C(=O)OC)=C(C)N=C3SCCC(=O)N32)cc1OCC (stereo unspecified)	1.5%
Cc1ccc(-c2ccc(=O)n(CCC(=O)N3CCN(c4cccc(C)c4)C(C)C3)n2)cc1 (stereo unspecified)	-3.7%
COc1ccc(C(=O)O)cc1S(=O)(=O)Nc1ccccc1C(=O)NCc1ccc2c(c1)OCO2	-5.4%

Entries above that bear a hit mark in VDR inh.
SMILES	VDR inh
COc1cc(CN2CCc3c([nH]c4ccccc34)C2)cc(OC)c1	50.1µM*
CN(C)c1ccc(NC(=O)N2CCOCC2)cc1	14.1µM*

New compounds follow
SMILES	VDR inh
COc1cccc(-c2nnc(NC(=O)c3ccc(Cl)s3)o2)c1	6.2%
Cc1nc2c(-c3ccccc3)c(C)nn2c(C)c1CCC(=O)NCc1ccccc1	11.8%
Cc1cccc(NC(=O)CS(=O)(=O)c2cccc3nsnc23)c1	9.2%
COc1ccc2nc(C)c3c(c2c1)OC(C)C3 (stereo unspecified)	5.9%
O=C(Nc1ccc(S(=O)(=O)C(F)F)cc1)c1ccc2c(=O)n3c(nc2c1)CCC3	5.4%
CCSc1nnc(CNC(=O)c2ccccc2F)n1-c1ccccc1OC	5.9%
Cc1ccc(-c2cc(-c3ccccc3C)[nH]n2)c(O)c1	-6.6%
O=C(O)c1cccc(-n2c(/C=C/c3ccccc3)nc3ccccc3c2=O)c1	-6.7%
O=C(Nc1cc(Cl)ccc1Cl)C1Cc2ccccc2O/C1=N\O (stereo unspecified)	2.6%
COc1ccc(N(CC(=O)Nc2ccc3c(c2)OCO3)S(=O)(=O)c2ccccc2)cc1	-10.5%
Cc1cccc(C(=O)NC2CC3CCCC(C2)N3C(=O)Nc2ccccc2)c1 (stereo unspecified)	1.2%
COc1ccc(-c2csc(-c3ccc(O)cc3)n2)cc1	?
Cc1cccc(C)c1OCC(O)CN1CCc2ccccc2C1 (stereo unspecified)	4.9%
COc1ccc(CN2C(=O)c3cccnc3C2=O)cc1S(=O)(=O)N1CCCC(C)C1 (stereo unspecified)	-11.1%
Cc1cc(C(=O)OCC(=O)NCc2ccccc2)c2ccccc2n1	-8.5%
Cc1cccc(N2CCN(CC(O)COCc3cccs3)CC2)c1C (stereo unspecified)	-21.8%
O=C(CCCCCNC(=O)N1CCn2c1nc1ccccc12)NCc1ccc(Cl)cc1	-1.0%
NC(=O)c1c(NC(=O)c2ccc(F)cc2Cl)sc2c1CCC2	-19.9%
Cc1cc(C)c(C(=O)Nc2ccc(S(=O)(=O)Nc3onc(C)c3C)cc2)c(C)c1	1.8%
CCc1cc(=O)oc2cc(OCC(=O)NCc3ccccn3)ccc12	?
O=C(c1ccccc1)N1CCN(c2n[nH]c(=O)[nH]c2=O)CC1	-20.6%
CCC(C)c1ccc(NC(=O)c2c([N+](=O)[O-])cnn2CC)cc1 (stereo unspecified)	-6.4%
COC(=O)Cn1c(C)nc(=O)c(-c2ccccc2)c1C	-2.2%
c1ccc(-c2ccccc2OCCCN2CCCCCC2)cc1	-18.6%
COc1ccc(NC(C)C(=O)N/N=C/c2cc(Br)ccc2OC)cc1 (stereo unspecified)	-3.5%
CCOc1ccc(NC(=O)c2ccc3c(SCC(=O)O)c4c(nc3c2)CCC4)cc1	-16.7%
CCCCc1nnc(SCc2cc(=O)c3cc(C(=O)OCC)ccc3[nH]2)n1C	-1.5%

Screening results deposited in PubChem by National Center for Advancing Translational Sciences (NCATS).

An excerpt; the hit share may differ from the screen's.
